Screening data: PubChem BioAssay, Broad Institute
Vaccinia stage = blocks a specific stage of Vaccinia orthopoxvirus infection, primary screen, cell-based, single point; Vaccinia-infected cells, mCherry/Venus stage reporter fluorescence; stronger effect = lower value; some inactives read as strong as hits; AID 1053133, 2014; activity change (mCherry), % (no concentration beside the values); 89,000 compounds, 0.01% hits;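 active means mCherry past -33% and 40 or more points under the early reporter, replicates agreeing; inconclusive means past -33% without that gap or agreement; tested in A549 cells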;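 further: scaled between vehicle wells and reference inhibitor wells; 23 nL library stock went into each well; one replicate is shown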
Vaccinia stage Venus = second read-out of Vaccinia stage, no call of its own (marks repeat the call); activity change (Venus), %; measured here: Venus reporter, other viral stage;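 negative = less Venus signal; first of two replicates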
The depositor's hits bear a star; ? = inconclusive; . = not tested or not shown. An excerpt; the hit share may differ from the screen's.

Each structure is followed by: Vaccinia stage, Vaccinia stage Venus
O=C(NCC[C@H]1CC[C@H](NS(=O)(=O)c2cccc(F)c2)[C@H](CO)O1)C1CCC1
    -3, -3
CO[C@H]1CN(C)C(=O)c2cc(NS(=O)(=O)c3ccc(Cl)cc3)ccc2OC[C@@H](C)N(C)C[C@H]1C
    10, 0
O=C(C[C@H]1CC[C@@H](NS(=O)(=O)c2ccc(F)cc2)[C@@H](CO)O1)NCc1ccccc1F
    29, 12
CO[C@@H]1CC[C@H]2CCN(C)C(=O)C[C@@H](c3ccccc3)CN(C)C(=O)c3cc(C#N)ccc3OC[C@H]1O2
    4, -3
O=C(C[C@@H]1C=C[C@@H](NC(=O)Nc2cc(F)ccc2F)[C@@H](CO)O1)Nc1ccccc1
    -1, -6
Cc1noc(C)c1S(=O)(=O)Nc1ccc2c(c1)C(=O)N([C@H](C)CO)C[C@@H](C)[C@H](CN(C)C(=O)Cc1ccccc1)OCCCC[C@@H](C)O2
    -18, -15
O=C(CC1CC1)N1CC(=O)N2[C@H](C1)[C@@H](c1ccc(-c3cccnc3)cc1)[C@@H]2CO
    11, 5
COc1ccc(S(=O)(=O)Nc2ccc3c(c2)C(=O)N([C@@H](C)CO)C[C@H](C)[C@H](CN(C)Cc2ccc4c(c2)OCO4)OCCCC[C@@H](C)O3)cc1
    ?, .
C[C@H](CO)N1C[C@H](C)[C@@H](CN(C)S(C)(=O)=O)Oc2c(NC(=O)C3CC3)cccc2C1=O
    9, 1
COc1ccc(S(=O)(=O)N(C)C[C@H]2OCCCC[C@@H](C)Oc3ccc(NC(=O)Nc4ccc(F)cc4)cc3C(=O)N([C@@H](C)CO)C[C@H]2C)cc1
    -16, -1
COc1ccc(NC(=O)Nc2ccc3c(c2)CC(=O)N([C@H](C)CO)C[C@@H](C)[C@H](CN(C)S(=O)(=O)c2cccs2)O3)cc1
    10, 4
O=C(c1ccccc1)N1CC(=O)N2[C@@H](CO)[C@H](c3ccc(C#CC4CC4)cc3)[C@@H]2C1
    11, -5
O=C(C[C@H]1C=C[C@@H](NS(=O)(=O)c2ccc(F)cc2)[C@@H](CO)O1)N1CCN(c2ccccc2)CC1
    11, 9
C[C@H](CO)N1C[C@H](C)[C@H](CN(C)C(=O)NC2CCCCC2)Oc2ncc(-c3cc4ccccc4o3)cc2C1=O
    ?, .
C[C@H]1CN([C@@H](C)CO)C(=O)c2cc(C#Cc3ccccc3)cnc2O[C@H]1CN(C)C(=O)c1ccccc1F
    -20, -17
CCCN(C)C[C@@H]1OCCCC[C@H](C)Oc2ccc(NC(=O)Cc3ccccc3)cc2C(=O)N([C@@H](C)CO)C[C@@H]1C
    -23, -16
COc1ccc(NC(=O)Nc2ccc3c(c2)C(=O)N([C@H](C)CO)C[C@@H](C)[C@H](CN(C)S(=O)(=O)c2ccc(Cl)cc2)OCCCC[C@H](C)O3)cc1
    13, 7
CCNC(=O)[C@H]1[C@H](CO)[C@H]2Cn3c(ccc(-c4cncnc4)c3=O)[C@@H]1N2C(=O)Nc1ccccc1
    12, 4
CS(=O)(=O)Nc1ccc2c(c1)[C@@H]1C[C@H](CC(=O)NC3CCCCC3)O[C@@H](CO)[C@@H]1O2
    1, 3
CN(C)C(=O)c1cccc(-c2ccccc2[C@H]2[C@@H](C#N)N(C(=O)C3CCCCC3)[C@@H]2CO)c1
    -7, -1
COc1cccc(NC(=O)N(C)C[C@H]2Oc3cc(/C=C/c4ccccc4)ccc3S(=O)(=O)N([C@@H](C)CO)C[C@@H]2C)c1
    ?, .
C[C@@H]1CN([C@@H](C)CO)C(=O)c2cc(-c3ccncc3)cnc2O[C@H]1CN(C)C(=O)c1ccncc1
    22, 6
C[C@@H]1CN([C@@H](C)CO)C(=O)c2cccc(N(C)C)c2O[C@@H]1CN(C)C(=O)Nc1ccc(F)cc1
    1, 1
CCCNC(=O)N1C[C@@H](C)[C@H](OC)CN(C)C(=O)c2cc(NS(=O)(=O)CC(F)(F)F)ccc2OC[C@@H]1C
    3, 12
C[C@H](CO)N1C[C@H](C)[C@@H](CN(C)Cc2ccc(C(=O)Nc3ccccc3N)cc2)Oc2ccc(NC(=O)C3CCCCC3)cc2CC1=O
    5, 9
CN1c2ccc(-c3ccccc3)cc2[C@@H]2[C@@H](CCN2C(=O)CN2CCOCC2)[C@H]1CO
    0, -7
Cc1ccc(S(=O)(=O)Nc2ccc3c(c2)C(=O)N([C@H](C)CO)C[C@H](C)[C@H](CN(C)CC2CC2)O3)cc1
    17, 13
CCC(=O)N1[C@@H]2c3ccc(-c4cccnc4)c(=O)n3C[C@H]1[C@H](CO)[C@H]2C(=O)N1CCc2ccccc2C1
    14, 9
Cc1noc(C)c1S(=O)(=O)Nc1ccc2c(c1)CC(=O)N([C@H](C)CO)C[C@H](C)[C@@H](CN(C)Cc1ccc(-c3ccccc3)cc1)O2
    ?, .
O=C1O[C@@H](c2ccccc2)[C@@H](c2ccccc2)N2[C@@H](c3ccc(O)cc3)[C@]3(C(=O)Nc4ccc(C#CC5=CCCCC5)cc43)[C@@H](C(=O)N3CCCCCCC3)[C@H]12
    -3, 3
COc1ccc(-c2cn(CC[C@H]3CC[C@@H](NC(=O)NC(C)C)[C@H](CO)O3)nn2)cc1
    -5, 2
COc1ccc2c3c(n(C)c2c1)[C@@H](CO)N(C(=O)CN1CCOCC1)CC31CCN(C(C)=O)CC1
    6, 4
C[C@@H]1CN([C@H](C)CO)C(=O)c2cccc(NC(=O)Nc3ccc(C(F)(F)F)cc3)c2O[C@H]1CN(C)Cc1ccc2c(c1)OCO2
    -19, -14
COCCOC(=O)N1C(=O)[C@@]2(c3cc(C#CC4(O)CCCCCC4)ccc31)[C@H](c1ccccc1OCCO)N1[C@H](c3ccccc3)[C@H](c3ccccc3)OC(=O)[C@H]1[C@@H]2C(=O)N1CCc2cc(OC)c(OC)cc2C1
    -13, -17
CO[C@H](CN(C)Cc1ccc2c(c1)OCO2)[C@H](C)CN(C(=O)c1ccccc1)[C@H](C)CO
    14, 13
C[C@H](CO)N1C[C@H](C)[C@@H](CN(C)S(=O)(=O)c2ccc(F)cc2)Oc2cc(C3=CCCC3)ccc2S1(=O)=O
    -14, -2
CCCC#Cc1cnc2c(c1)C(=O)N([C@@H](C)CO)C[C@H](C)[C@H](CN(C)C(=O)Nc1ccccc1OC)O2
    7, 12
Cc1ccc(-c2cnc3c(c2)C(=O)N([C@H](C)CO)C[C@@H](C)[C@@H](CN(C)Cc2ccccc2C(=O)O)O3)cc1
    -8, 11
O=C(c1cccc(F)c1)N1CC(=O)N2[C@H](C1)[C@@H](c1ccc(-c3ccccc3F)cc1)[C@@H]2CO
    ?, .
CO[C@H]1CN(C)C(=O)c2ccc(NS(=O)(=O)c3ccccc3Cl)cc2OC[C@H](C)NC[C@H]1C
    7, -2

One compound at a time, as listed above. Values in the order: Vaccinia stage, Vaccinia stage Venus
Cc1ccc(-c2cnc3c(c2)C(=O)N([C@H](C)CO)C[C@@H](C)[C@@H](CN(C)Cc2ccccc2C(=O)O)O3)cc1 in the list: -8, 11
CCCNC(=O)N1C[C@@H](C)[C@H](OC)CN(C)C(=O)c2cc(NS(=O)(=O)CC(F)(F)F)ccc2OC[C@@H]1C in the list: 3, 12

New compounds follow.
Each structure is followed by: Vaccinia stage, Vaccinia stage Venus
CCS(=O)(=O)N1CC(=O)N2[C@H](CO)[C@@H](c3ccc(-c4ccc(C)cc4)cc3)[C@@H]2C1
    -10, -36
C[C@@H]1CN([C@@H](C)CO)C(=O)c2cc(NS(=O)(=O)c3cccs3)ccc2O[C@H]1CN(C)S(C)(=O)=O
    16, 13
CCC(=O)N1CC(=O)N2[C@@H](CO)[C@H](c3ccc(C#CC4CCCC4)cc3)[C@@H]2C1
    -7, -8
CCS(=O)(=O)N1CCCCN2[C@@H](CO)[C@@H](c3ccc(C#Cc4ccccc4OC)cc3)[C@@H]2C1
    -34, -32
CCCNC(=O)N(C)C[C@H]1Oc2cc(C3=CCCCC3)ccc2S(=O)(=O)N([C@@H](C)CO)C[C@H]1C
    -17, -28
Cc1cccc(-c2ccc([C@@H]3[C@@H](CO)N4CCCCN(C(=O)c5ccncc5)C[C@@H]34)cc2)c1
    -9, -8
Cc1ccc(S(=O)(=O)Nc2ccc3c(c2)C(=O)N([C@H](C)CO)C[C@@H](C)[C@@H](CN(C)C(=O)NC(C)C)OCCCC[C@H](C)O3)cc1
    1, -6
O=S(=O)(N[C@@H]1CC[C@@H](CCn2cc(C3CC3)nn2)O[C@H]1CO)c1ccc(F)cc1
    -1, -2
C[C@H](CO)N1C[C@H](C)[C@H](CN(C)S(=O)(=O)c2ccc(F)cc2)OCCCC[C@H](C)Oc2ccc(NC(=O)c3ccccc3)cc2C1=O
    -20, -4
COc1cccc(C(=O)N2C[C@H]3[C@@H](c4ccccc42)[C@@H](CO)N3Cc2cccnc2)c1
    10, 14
O=C(Nc1ccc(F)cc1)N1CCCCN2[C@H](C1)[C@@H](c1ccc(-c3ccccc3F)cc1)[C@@H]2CO
    ?, .
CC(C)NC(=O)N(C)C[C@H]1Oc2ccc(NS(C)(=O)=O)cc2CC(=O)N([C@@H](C)CO)C[C@@H]1C
    17, 5
C[C@H](NC(=O)C[C@H]1C=C[C@H](NS(=O)(=O)c2cccc(F)c2)[C@H](CO)O1)c1ccccc1
    0, 2
COc1ccc(S(=O)(=O)N(C)C[C@H]2Oc3c(NC(=O)C4CCCCC4)cccc3C(=O)N([C@H](C)CO)C[C@H]2C)cc1
    -19, -13
CCCC#Cc1ccc2c(c1)O[C@H](CN(C)CCC)[C@H](C)CN([C@@H](C)CO)S2(=O)=O
    -34, -26
C[C@@H]1CCCCO[C@@H](CN(C)C(=O)CCC(F)(F)F)[C@@H](C)CN([C@H](C)CO)C(=O)c2cc(NS(C)(=O)=O)ccc2O1
    4, 3
CC(=O)N(C)C[C@H]1Oc2cc(C#Cc3ccccc3F)ccc2S(=O)(=O)N([C@H](C)CO)C[C@@H]1C
    ?, .
CCC(=O)N(C)C[C@H]1Oc2ncc(C#C[C@H](C)O)cc2C(=O)N([C@@H](C)CO)C[C@H]1C
    9, 13
C[C@H]1CN([C@@H](C)CO)C(=O)c2cccc(NC(=O)c3ccc(-c4nccs4)cc3)c2O[C@H]1CN(C)C
    35, 18
COc1ccc(NC(=O)N(C)C[C@H]2Oc3ccc(NC(=O)CCN4CCOCC4)cc3CC(=O)N([C@@H](C)CO)C[C@H]2C)cc1
    15, 4

Reprinted from the part before: 4 compounds, then new ones.
Each structure is followed by: Vaccinia stage, Vaccinia stage Venus
CC(=O)N(C)C[C@H]1Oc2cc(C#Cc3ccccc3F)ccc2S(=O)(=O)N([C@H](C)CO)C[C@@H]1C
    ?, .
CCC(=O)N(C)C[C@H]1Oc2ncc(C#C[C@H](C)O)cc2C(=O)N([C@@H](C)CO)C[C@H]1C
    9, 13
C[C@H]1CN([C@@H](C)CO)C(=O)c2cccc(NC(=O)c3ccc(-c4nccs4)cc3)c2O[C@H]1CN(C)C
    35, 18
COc1ccc(NC(=O)N(C)C[C@H]2Oc3ccc(NC(=O)CCN4CCOCC4)cc3CC(=O)N([C@@H](C)CO)C[C@H]2C)cc1
    15, 4
CCCNC(=O)C[C@H]1C[C@@H]2c3cc(NC(=O)COC)ccc3O[C@@H]2[C@@H](CO)O1
    -5, 0
O=C(c1ccncc1)N1CCCCN2[C@H](CO)[C@@H](c3ccc(-c4ccccc4)cc3)[C@H]2C1
    12, 2
O=C(C[C@H]1C=C[C@@H](NS(=O)(=O)c2ccc(F)cc2)[C@H](CO)O1)N1CCC(Cc2ccccc2)CC1
    -30, -22
COc1cccc(CNC(=O)c2cc3c(c(-c4cccc(-c5ccc(C#N)cc5)c4)n2)[C@@H](CCO)N([S@](=O)C(C)(C)C)C3)c1
    -2, 9
CO[C@@H]1CN(C)C(=O)c2ccc(NC(=O)c3ccccc3)cc2OC[C@@H](C)N(C(C)=O)C[C@H]1C
    7, -8
C[C@@H]1CN([C@H](C)CO)C(=O)c2ccccc2-c2ccccc2CO[C@@H]1CN(C)Cc1ccc(F)cc1
    -18, -20
CC=Cc1ccc2n(c1=O)C[C@@H]1[C@@H](CO)[C@H](C(=O)N[C@H](C)c3ccccc3)[C@H]2N1Cc1cncnc1 (mixture of isomers)
    2, 4
CCCNC(=O)N1CC2(C1)[C@H](c1ccccc1)[C@H](CO)N2C(=O)c1cccnc1
    10, 13
CN(C)CC(=O)N[C@H]1C=C[C@@H](CC(=O)NCc2ccccc2F)O[C@H]1CO
    22, 18
CCCNC(=O)[C@H]1[C@H](CO)[C@H]2Cn3c(ccc(-c4cccc(F)c4)c3=O)[C@@H]1N2C(C)=O
    3, -3
CN1C(=O)c2cc(NC(=O)C3CCCCC3)ccc2OC[C@@H]2O[C@H](CC(=O)NCCc3ccncc3)CC[C@@H]21
    21, 20
N#Cc1ccc(-c2ccc([C@H]3[C@@H](CO)N4C(=O)CN(C(=O)C5CCCC5)C[C@H]34)cc2)cc1
    -13, -1
CN(C)CC#Cc1ccc([C@@H]2[C@@H](CO)N3CCCCN(C(=O)Cc4ccccn4)C[C@@H]23)cc1
    16, 11
C[C@H](CO)N1C[C@H](C)[C@@H](CN(C)Cc2ccccc2)Oc2ccc(NC(=O)c3ccncc3)cc2C1=O
    23, 17
CC(=O)N1[C@@H]2c3ccc(-c4ccccc4)c(=O)n3C[C@H]1[C@H](CO)[C@H]2C(=O)N1CCN(C)CC1
    6, 10
CCCC(=O)Nc1ccc2c(c1)C(=O)N(C)C[C@@H](OC)[C@H](C)CN(C(=O)c1cnccn1)[C@@H](C)CO2
    2, 0
CC(C)NC(=O)N(C)C[C@H]1OCCCC[C@H](C)Oc2ccc(NS(=O)(=O)c3ccc(Cl)cc3)cc2C(=O)N([C@@H](C)CO)C[C@@H]1C
    -3, 1
